Autofluor counter = counter-screen for toxin protease inhibitors: compound fluorescence | compound autofluorescence counterscreen, microsphere flow cytometry; active compounds read high | AID 624483 | fluorescence intensity (test concentration not listed) | 360,000 compounds, 3.1% hits;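 active = at least 3 SD above the mean of all compounds, about 16000 in these data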;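 also: 100 nL of 1 mM stock went into each well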
Starred values were filed as active, the others as inactive. Only part of the results is shown, so the mix of outcomes need not match the whole.

SMILES	Autofluor counter
C#CCN(C[C@H]1[C@H](OC(=O)NCc2ccccc2F)[C@H](OC(=O)NCc2ccccc2F)C[C@@H](C(=O)OC)[C@H]1C(=O)OC)S(=O)(=O)c1ccc(C)cc1	3171
Cc1cc(Cl)ccc1C(O)c1ncc(-c2ccccc2C(F)(F)F)[nH]1 (centres undefined)	3898
Cn1c(CC(O)c2nc3ccccc3n2C)nc2ccccc21 (centres undefined)	3792
COc1ccccc1-c1noc2c1C(=O)N(Cc1cn(-c3ccccc3OC)nn1)CC2	5900
COC1=C(OC)C(=O)C(CCCCCCCCCCO)=C(C)C1=O	4236
CCCCN(C=O)c1c(CC)nc2c(OCc3cc(Cl)cc(Cl)c3)cccn12	4102
c1ccc2c[n+](CCCCCCCCCC[n+]3ccc4ccccc4c3)ccc2c1	6167
CN(C)C(=O)Nc1ccc(Cl)c(Cl)c1	4413
COc1cccc(CN(C)C[C@@H]2OCc3cnnn3CCCC(=O)N([C@@H](C)CO)C[C@H]2C)c1	3656
COc1ccc(NC(=O)c2ccccc2SCc2ccccc2)cc1	2873

2 records drawn at random from the list so far, as already listed:
SMILES	Autofluor counter
COc1ccc(NC(=O)c2ccccc2SCc2ccccc2)cc1	2873
c1ccc2c[n+](CCCCCCCCCC[n+]3ccc4ccccc4c3)ccc2c1	6167

Continuation:
SMILES	Autofluor counter
c1ccc(N2CCN(c3cccc(-c4cc5ccccc5s4)n3)CC2)nc1	3605
O=C(Nc1ccc2c(c1)[C@H]1C[C@@H](CC(=O)N3CCOCC3)O[C@@H](CO)[C@H]1O2)C1CCOCC1	3931
COc1ccc2c(c1)C1(C)CCN(C)CC(C1)C2O (centres undefined)	2874
CC1(C(=O)NS(=O)(=O)C2CC2)CCN(C(=O)COc2ccc(Cl)cc2Cl)C1 (centres undefined)	2846
Clc1ccc2nc(-c3cccc(Br)c3)c(Cc3ccccc3)n2c1	7513
COc1ccc(C(C)NC(=O)C2CCN(CCCc3ccccc3)CC2)cc1OC (centres undefined)	3326
C=CCn1nc(C(=O)OCC)cc1-c1sc(NC(=O)c2ccccc2)nc1C	3454
O=C(CN1CCOCC1)N1c2ccccc2Sc2ccc(Cl)cc21	3309
CC(C)c1ccc(NC(=O)C2(C)Cc3c(-c4ccc5c(c4)OCO5)ccnc3O2)cc1 (centres undefined)	4273
CCCCCCn1cc(CN2CC(N3CCN(C)CC3)CS2(=O)=O)nn1 (centres undefined)	6273
CC(C)Oc1cc(F)ccc1-c1cc(C(=O)NC2CCCCC2)[nH]n1	3821
CC1(C(=O)NS(=O)(=O)Cc2cccc(Cl)c2)CCN1C(=O)C1(c2ccc(Cl)cc2)CCC1 (centres undefined)	2984
CC(O)(c1cccc(F)c1)c1nc(-c2cc3ccccc3o2)cs1 (centres undefined)	3900
C#CCNC(=O)C[C@@H]1C[C@@]2(C(=O)OCC)CCCC=C2N(Cc2ccc(Cl)cc2Cl)C1=O	6533
COc1ccccc1C(=O)NCCCNc1nc2cc(C)cc(C)c2cc1C#N	3502
CC(=O)c1ccc(N2CCN(C(=O)COc3ccc4ccccc4c3)CC2)cc1	3702
COC(=O)[C@@]1(Cc2ccc(F)cc2)[C@H]2c3cc(C(=O)N(C)C)n(CCCNc4ncc(C(F)(F)F)cc4Cl)c3C[C@H]2CN1C(=O)c1ccccc1	6553
Oc1cccc2cc(-c3ccncc3)cnc12	2987
O[C@@H]1CN(Cc2cccs2)[C@@H](c2ccccc2)C[C@H]1n1cc(-c2ccc(F)cc2)nn1	3780
C[C@H](O)[C@@H]1CN2CCc3c([nH]c4ccccc34)[C@@H]2C[C@@H]1N(C)C(=O)Nc1cccc2ccccc12	4918
CC(C)COC(=O)N(C)C[C@@H]1OCc2cnnn2CCCC(=O)N([C@@H](C)CO)C[C@@H]1C	3136
COc1ccc2c(CN3CCOCC3)cc(=O)oc2c1	4315
CCN(c1ccccc1)S(=O)(=O)c1ccc(C(=O)N2CCN(c3ccccc3F)CC2)cc1	3893
O=C1CSC(=S)N1N=Cc1ccc(OCc2ccccc2)cc1	4076
Nc1nc(N)c(N=O)c(Nc2ccc(Cl)c(Cl)c2)n1	6089
COc1ccc(C(C)(NC(C)=O)c2nc(-c3cccnc3)cs2)cc1 (centres undefined)	3884
CCCCN(CCCC)Cc1cc(=O)oc2cc(OC)ccc12	4302
O=C(Nc1ccn(CCCN2CCN(Cc3cccc4ccccc34)CC2)c(=O)n1)OCc1ccccc1	3776
CC(=O)Nc1cc(-c2ccc(N3CCN(C)CC3)cc2)cn2c(-c3ccc(S(C)(=O)=O)cc3)cnc12	3792
C[C@@H]1CN([C@H](C)CO)C(=O)CCCn2nncc2CO[C@H]1CN(C)C(=O)CCC(F)(F)F	2857
CCCn1c(CC)nc([N+](=O)[O-])c1Sc1ncn[nH]1	2906
Cc1cc(C)c(C(=O)COC(=O)c2cccc(S(=O)(=O)N3CCOCC3)c2)cc1C	3531
COc1ccc(-c2ccc(C(=O)Nc3ccc4c(c3)OCO4)c3occc23)c(C)c1	3779
CCOC(COC(=O)c1ccccc1C(=O)O)c1ccccc1 (centres undefined)	2812
Cc1cccc(C)c1-n1nnnc1C1c2ccccc2C(=O)N1CCc1ccccc1F (centres undefined)	4577
COc1cccc(CNc2nc3cc(-c4ccccc4)sc3c(=O)n2C)c1	3800
Cc1ccc(S(=O)(=O)N2C[C@]3(O)C[C@@H]4C(=O)N(c5ccccc5)C(=O)[C@@H]4C[C@]3(OC(=O)NC3CCCC3)C2)cc1	5248
COc1ccc(Cc2c(-c3ccc(F)cc3)nc3ccc(Cl)cn23)c(C)c1	7015
COc1cccc(-c2cc3nc(NCc4cccnc4)n(C)c(=O)c3s2)c1	2820
COc1ccc(C(=O)CSC(=S)N2CCCCC2)cc1	5530
Oc1ccc(C[C@@H](CN2CCC[C@@H]2CN2C(=S)NC[C@@H]2Cc2ccccc2)N2C[C@H](Cc3ccccc3)N(CCc3ccccc3)C2=S)cc1	6427
O=C(Nc1ccc2c(c1)OCCO2)C(C1CC1)N1CCN(c2ccc(C(F)(F)F)cn2)CC1 (centres undefined)	5801
O=S1(=O)CCN(CCCCc2ccccc2)CC1	2815
COc1cc(CN2C[C@@H](CO)O[C@@H](n3cnc4c(N5CCCC5)ncnc43)C2)cc(OC)c1OC	2840
CCCCNC(=O)c1ccc2nc(CC)c(N(CC)CCN(C)C)n2c1	3700
Clc1ccc2nc(-c3cccc(Br)c3)c(Cc3ccsc3)n2c1	6263
CC1(C(=O)NS(=O)(=O)c2cccc(OC(F)F)c2)CCN1C(=O)Cc1ccsc1 (centres undefined)	2945
CCCS(=O)(=O)NC(=O)C1(C)CCCN(C(=O)c2ccc3ccccc3n2)C1 (centres undefined)	2841
CCN(C(=O)CN1C(=O)NC2(CCC(C)CC2)C1=O)C1CCCCC1 (centres undefined)	3545
CCC(=O)N1CCCC(C(=O)NS(=O)(=O)c2cc(C)c(Cl)cc2C)CC1 (centres undefined)	3603
(cont.)
SMILES	Autofluor counter
COCCN(C(=O)COC(=O)C1CC(=O)N(c2ccc(C)cc2)C1)c1c(N)n(Cc2ccccc2)c(=O)[nH]c1=O (centres undefined)	2876
OC[C@H]1O[C@H](c2nc(-c3nc(-c4cccc(-n5cccc5)c4)no3)cs2)C[C@@H]1O	3538
O=C(Nc1ccccc1)Nc1nnc([C@@H]2C[C@H](O)[C@@H](CO)O2)s1	3405
COc1c(Cl)c(=O)oc2ccc(Cl)cc12	3940
OCc1ccccc1-c1cnc2cccnn12	3583
CCn1cc(CN2CCCC(C(=O)c3cccc(C(F)(F)F)c3)C2)cn1 (centres undefined)	2784
COc1ccccc1NC(=O)N(C)C[C@H]1Oc2cc(Br)ccc2S(=O)(=O)N([C@H](C)CO)C[C@H]1C	3769
COc1cc(NCCCn2cnc3c(OC)ncnc32)cc(OC)c1OC	3848
CC(=O)c1ccc(OCc2nnn(CC(=O)NS(=O)(=O)Cc3ccccc3)c2-c2ccccc2)cc1	3903
CCNC(=O)C1(C)CCCN(Cc2csc(-c3ccc(Cl)cc3)n2)C1 (centres undefined)	2938

Taken from above.
Entry for O=C(Nc1ccccc1)Nc1nnc([C@@H]2C[C@H](O)[C@@H](CO)O2)s1 in Autofluor counter: 3405
Entry for COc1ccccc1NC(=O)N(C)C[C@H]1Oc2cc(Br)ccc2S(=O)(=O)N([C@H](C)CO)C[C@H]1C in Autofluor counter: 3769
Entry for OCc1ccccc1-c1cnc2cccnn12 in Autofluor counter: 3583

(further entries)
SMILES	Autofluor counter
Cc1ccc(CN2C(=O)c3ccccc3C2c2nnnn2-c2c(C)cccc2C)cc1 (centres undefined)	4180
COC(=O)c1ccc2nc(-c3ccc(F)cc3)c(Cc3cccc(Cl)c3)n2c1	4913
Cc1cc(=O)c2ccc(NC(=O)c3ccccc3)cc2[nH]1	3629
C[C@H](CO)N1C[C@H](C)[C@H](CN(C)Cc2cncnc2)Oc2cc(Br)ccc2S1(=O)=O	3795
Cc1ccc(CNC(=O)CSc2nc(=O)n3ccc(C)cc3n2)cc1	3415
CCc1nc2c(OCc3ccc(Cl)cc3)cccn2c1N(C=O)Cc1ccccc1	4028
Cc1ccc(S(=O)(=O)N2C[C@H]3[C@H]4C(=O)N(C5CCCCC5)C(=O)[C@H]4CC(=O)[C@H]3[C@@H]2c2ccccc2F)cc1	4364
Cn1c(=O)c2cc(NC(=S)NCc3ccccc3F)ccc2n1C	3312
CC(=NNC1=NCCN1)c1cnn(C2=NCCN2)c1C	5347
O=C(NN=Cc1ccc2c(c1)CCN2)c1cccs1	3759

Entries from the list above that contain a thiophene ring, fused or not:
SMILES	Autofluor counter
c1ccc(N2CCN(c3cccc(-c4cc5ccccc5s4)n3)CC2)nc1	3605
O[C@@H]1CN(Cc2cccs2)[C@@H](c2ccccc2)C[C@H]1n1cc(-c2ccc(F)cc2)nn1	3780
COc1cccc(CNc2nc3cc(-c4ccccc4)sc3c(=O)n2C)c1	3800
COc1cccc(-c2cc3nc(NCc4cccnc4)n(C)c(=O)c3s2)c1	2820
Clc1ccc2nc(-c3cccc(Br)c3)c(Cc3ccsc3)n2c1	6263
CC1(C(=O)NS(=O)(=O)c2cccc(OC(F)F)c2)CCN1C(=O)Cc1ccsc1 (centres undefined)	2945
O=C(NN=Cc1ccc2c(c1)CCN2)c1cccs1	3759

The list goes on.
SMILES	Autofluor counter
CC1ON=C(c2ccccn2)N(Cc2ccc3c(c2)OCO3)C1=O (centres undefined)	5170
C[C@@H]1CN([C@@H](C)CO)C(=O)c2cc(Br)cnc2O[C@H]1CN(C)C(=O)CN1CCOCC1	3702
COc1ccc(S(=O)(=O)N(C)C)cc1NC(=O)COc1ccc2c(c1)CCC2	3542
CCCN1C(=O)CC(c2ccc(OC)c(OC)c2)C1=O (centres undefined)	5658
COc1ccc(NC(=O)C2Cc3c(-c4cccc(F)c4)ccnc3O2)cc1OC (centres undefined)	2787
CCCCC[C@H](C)N1C[C@H](COCc2ccccc2)Oc2cc(N3CCC[C@H]3COC)ccc2S1(=O)=O	6067
CCOC(=O)N(C)C[C@@H]1OCc2cnnn2CCCC(=O)N([C@@H](C)CO)C[C@@H]1C	3515
COc1ccc(NC(=O)COC(=O)c2c(NC(C)=O)sc(C)c2C)cc1	3020
CC1(C(=O)NS(=O)(=O)c2ccccc2)CCN1C(=O)C1CCCCC1 (centres undefined)	3661
CCCCCc1c(-c2ccc(F)cc2F)ncn1CCc1ccccc1OC	4285
COc1cc(-c2c(CCO)sc3ccccc23)cc(OC)c1OC	5544
O=S1(=O)N[C@@H](c2ccccc2)COc2cc(Br)ccc21	3979
CC1=C(C(=O)N2CCOCC2)CC(CC(=O)NCCN2CCOCC2)C(=O)N1CCC1=CCCCC1 (centres undefined)	3655
CN(C(=O)COC(=O)CSc1ccccc1)c1c(N)n(Cc2ccccc2)c(=O)[nH]c1=O	2771
COc1ccc(C(=O)C2CCCN(CCc3ccccc3)C2)cc1OC (centres undefined)	3036
CC(=O)Nc1ccc(NC(=O)N2CCOCC2)cc1	3692
Cc1c(NC(=O)c2cccc(NC(=O)Cc3ccccc3Cl)c2)c(=O)n(-c2ccccc2)n1C	3939
COc1ccc(CCNC(=O)CSC2=NS(=O)(=O)c3cc(F)ccc3N2)cc1OC	3553
c1cnc2c(-c3ccc4nccn4c3)cccc2c1	3858
CC(C)(C)c1ccc(S(=O)(=O)NC(=O)C2(C)CCN2C(=O)Cc2cccs2)cc1 (centres undefined)	3663
C=CCC[C@@H](CCCCC)OC(=O)/C=C/[C@H](O)[C@@H](O)C[C@H](O)CC=C	4342
O=C(NCCN1CCOCC1)C1CCN(S(=O)(=O)c2ccccc2)CC1	3407
C[C@H](CO)N1C[C@H](C)[C@@H](CN(C)C(=O)Nc2ccc(F)cc2)OCc2cnnn2CCCC1=O	2866
COc1ccc(CN2C(=O)C(C)Nc3ncnc(N4CCc5ccccc5C4)c32)cc1 (centres undefined)	6023
C#CCn1c2ccccc2c(=O)n1C(C)CBr (centres undefined)	5924
CCc1ccc2c(c1)NC(=O)C2(C)Cc1ccccc1Cl (centres undefined)	3706
O=C(C[C@H]1C(=O)N(c2ccccc2)C[C@@H]1Cc1ccccc1)Nc1ccc(Br)cc1	3153
O=C(Oc1ccccc1)N1CCCCC1	3591
C#CCN(C[C@H]1[C@H](OC(=O)NCCCCCC)[C@H](OC(=O)NCCCCCC)C[C@@H](C(=O)OC)[C@H]1C(=O)OC)S(=O)(=O)c1ccc(C)cc1	2943
COc1ccc(CN(C)C(=O)CNC(=O)c2sc3ccccc3c2Cl)c(OC)c1	3888
COc1ccc2nc(-c3ccccn3)ccc2c1	4005
CCn1c(SCC(=O)Nc2ccccc2)nc2c(c1=O)SCC2	2849
CCOC(=O)C1CCCN(C(=O)c2cccnc2Oc2ccccc2)CC1 (centres undefined)	3956
COc1ccccc1NC(=O)Nc1ccnn1C1CCN(C(=O)C2CCOC2)CC1 (centres undefined)	3822
O=C(COC(=O)c1cnccn1)NCc1ccccc1Cl	3145
Cc1ccc(S(=O)(=O)N2C[C@H]3N(C(=O)OC(C)C)N(C(=O)OC(C)C)C[C@H](OC(=O)Nc4cccs4)[C@@]3(O)C2)cc1	4657
Cc1cccc(C)c1-n1nnnc1C1c2ccccc2C(=O)N1CCCn1ccnc1 (centres undefined)	4374
c1ccc2c(-c3cccc4nccn34)cncc2c1	3813
CCc1nc2ccc(C(=O)NC3CCN(Cc4ccccc4)CC3)cn2c1N(CC)CCOC	3638
C[C@@H]1CCCCO[C@@H](CN(C)S(=O)(=O)c2ccccc2)[C@@H](C)CN([C@H](C)CO)C(=O)c2cc(NS(=O)(=O)c3ccc(F)cc3)ccc2O1	3623
